# PMP22 txn – modulates PMP22 transcription in S16 Schwann cells | 43,000 compounds, 2% hits | S16 Pmp22-F2sN Schwann cells (luciferase reporters placed in the Pmp22 gene), FLuc/NLuc coincidence luminescence, 24 h | Potency, µM (top dose mostly 57.5 µM), inactives show top-dose activity change, negative = inhibition, usual class: inhibitors; active = clear falling dose curves in both reporters; inconclusive = both reporters move, but less clearly or upward; inactive = either reporter flat; the % is the NLuc reporter signal; further: on the % scale 0 is the no-effect control and ±100 the full control effect; some results filed as inactive show a strong effect at the top dose
#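 Luminescent read-out of sequential FLuc and NLuc signals from a reporter embedded in the Pmp22 3' UTR of S16 Schwann cells, taken after 24 h compound exposure at 37C; compounds reducing both signals score as inhibitors of expression.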
# HTT prom inh – inhibitors of huntingtin promoter activity; HEK293 HTT promoter firefly luciferase reporter (activity 0% = vehicle and -100% = no light), 24 h; Potency, µM (top dose mostly 57.5 µM), for the others: at the highest dose activity change, negative = inhibition, usual class: inhibitors; 48,000 compounds, 0.93% hits; active means well fitted inhibition curve with a large enough effect; inconclusive means small, poorly fitted or top-dose-only effect; inactive means no such curve, though single readings can be large or run the other way; further: nearly all actives have a fitted effect of over 50% in size
#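 HEK293 cells carrying firefly luciferase reporters were seeded at 2,500 per well in Opti-MEM and cultured for 24 h. They were then treated with compounds at up to 57.5 uM final for 24 h at 37 degrees C before Dual-Glo luminescence readout.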
# Active calls of the source: *; ? = inconclusive; . = not tested or not shown; & = joins results of further samples; [ ] = another dose, or the depositor's remark. Potency means the concentration at half of the fitted maximal effect.
entry | SMILES | PMP22 txn | HTT prom inh
1 | COC[C@H](NC(=O)c1cnc(C)s1)C(=O)N[C@@H](COC)C(=O)N[C@@H](Cc1ccccc1)C(=O)[C@@]1(C)CO1 | . | ?
2 | O=C1Cc2cc(CCN3CCN(c4nsc5ccccc45)CC3)c(Cl)cc2N1 | . | -14%&-6%
3 | Cc1cccc(N2CCN(c3ccc4cc(S(=O)(=O)N5CCC(C)CC5)ccc4n3)CC2)c1C | 2% | 3%
4 | CCOc1ccc(S(=O)(=O)N(CC(=O)NCc2ccccc2OC)c2ccccc2)cc1 | ? | ?
5 | COc1cc(CN2CCc3nc(Nc4ccc5c(c4)OCCO5)ncc3C2)cc(OC)c1OC | -27% | 12%
6 | COc1cc(Cl)c(NC(=O)CCS(=O)(=O)c2ccc3c(c2)NC(=O)CO3)c(OC)c1 | -12% | 0%
7 | CC(C)NC(=O)C1CCN(C(=O)c2cc3sccc3n2Cc2ccc(Cl)cc2)CC1 | 9.5µM* | 8.9µM*
8 | Cc1cccc(C)c1OCCn1c(CCNC(=O)C2CCCCC2)nc2ccccc21 | -18% | ?
9 | Cc1ccc2nc(NC(=O)c3cc(=O)c4cc(C)c(C)cc4o3)sc2c1 | 0% | -13%
10 | CCc1ccc(C(=O)c2cn(CC(=O)Nc3ccc(F)c(F)c3)c3cc(OC)c(OC)cc3c2=O)cc1 | ? | ?
11 | CCc1ccc(CN(Cc2ccco2)C(=O)c2ccccc2Cl)cc1 | -5% | -5%
12 | CC1=C(C#N)C(NC(=O)c2ccccc2)(C(F)(F)F)C(=O)N1 (stereo not drawn) | 5% | -18%
13 | Fc1ccc(-c2cc3ncc4c(n3n2)-c2cc(Cl)ccc2OC4)cc1 | ? | -1%
14 | CCOC(=O)CSc1nc2ccc(NC(=O)COc3ccccc3C)cc2s1 | 3% | 6%
15 | CC1CCN(C(=O)c2c(NC(=O)c3ccccc3F)sc3c2CCC(C(C)(C)C)C3)CC1 (stereo not drawn) | ? | -11%
16 | COc1ccc2cc(C(=O)NCc3ccc4c(c3)CCN4C(=O)c3ccc(C)cc3)[nH]c2c1 | -4% | ?
17 | Cc1ccc(C(=O)Nc2nnc(S(=O)(=O)N3c4ccccc4CC3C)s2)cc1 (stereo not drawn) | 18% | ?
18 | Cc1cc2oc(C(=O)Nc3ccc(S(=O)(=O)Nc4onc(C)c4C)cc3)cc(=O)c2cc1C | -147% | -18%
19 | CCn1c(=N)c(C(=O)NC2CCCC2)cc2c(=O)n3cc(C)ccc3nc21 | -16% | 18%
20 | O=C(CCn1c(=O)c2cccn2c2cccnc21)N1CCN(c2ccccc2F)CC1 | 0% | -5%
21 | CN1CCN(C(=O)c2ccc3c(c2)N(Cc2cccc(Cl)c2)C(=O)c2ccccc2S3(=O)=O)CC1 | ? | -26%
22 | CCOC(=O)c1cccc(NC(=O)COc2ccc3c(C)cc(=O)oc3c2)c1 | 8% | 15%
23 | COc1ccc(-c2nc3scc(CCNC(=O)Cc4ccc(F)cc4)n3n2)cc1 | 19% | -22%
24 | CCc1ccccc1NC(=O)Cn1c(=O)n(CCCS(=O)(=O)C2CCCCC2)c(=O)c2ccccc21 | -9% | -18%
25 | COc1ccc(NC(=O)C2=CC(c3ccc4c(c3)OCO4)=NS(=O)(=O)N2C)cc1OC | -2% | -33%
26 | COc1cccc(OC)c1C(=O)NCCc1csc(-c2ccc(Cl)cc2)n1 | -10% | ?
27 | Cc1ccc(S(=O)(=O)N2CCN(C(=O)c3cc(-c4ccc(Br)cc4)n[nH]3)CC2)c(C)c1 | -30% | -27%
28 | COc1ccc(N(CC(=O)NCc2ccccc2Cl)S(=O)(=O)c2c(C)[nH]c(=O)[nH]c2=O)cc1 | 6% | -22%[11.5 µM]
29 | Cc1nc2sc(C(=O)NCc3ccc(Cl)cc3)c(NC(=O)c3ccccc3)c2c(C)c1C | ? | ?
30 | CCc1cccc(NC(=O)C(CC)n2nc(C)c3sc4ccccc4c3c2=O)c1 (stereo not drawn) | -2% | -1%
31 | CC(=O)Nc1nnc(SCc2cc(=O)c3cc(C)ccc3[nH]2)s1 | -24% | -19%
32 | O=C(CSc1nc(=O)[nH]c2c1CCCC2)Nc1cc(C(F)(F)F)ccc1Cl | ? | ?
33 | CCn1cc(C(=O)N2CCN(c3ccc(OC)cc3)CC2)c(=O)c2cc(S(=O)(=O)N(C)C3CCCCC3)ccc21 | -13% | -7%
34 | CCCCN(C(=O)Nc1ccc(Cl)cc1)C1CCN(C(C)=O)CC1 | -2% | 13%
35 | O=C(CSc1nnc(-c2ccccc2Br)n1-c1ccccc1)c1ccc(F)cc1 | -1% | -38%
36 | COc1ccc(CCN2CC(C(=O)NCCc3ccccc3)CC2=O)cc1OC (stereo not drawn) | 9% | 12%
37 | COc1ccc(N(CC(C)C)S(=O)(=O)c2nnc(NC(=O)c3cccs3)s2)cc1 | -35% | -9%
38 | COc1ccc(-c2ccc(=O)n(CC(=O)Nc3ccc(N(C)C)cc3)n2)cc1 | -2% | 0%
39 | CCOc1ccc(-n2c(Cc3ccccc3)nnc2SCc2nc(-c3ccccc3C)no2)cc1 | ? | ?
40 | N=c1n(CCN2CCCCC2)c2ccccc2n1CC(O)COc1ccccc1 (stereo not drawn) | ? | ?
41 | Cc1ccc(CN2COc3ccc4c(-c5ccccc5)cc(=O)oc4c3C2)cc1 | -33% | -12%
42 | CCN1c2ccccc2-c2nc(SCC(=O)Nc3ccc(C)c(Cl)c3)ncc2S1(=O)=O | ? | ?
43 | O=C(CCOCCOCCOCCOCCC(=O)Nc1c(I)cc(I)c(C(=O)O)c1I)Nc1c(I)cc(I)c(C(=O)O)c1I | . | 3%
44 | CCn1cc2nc(SCc3cc(C)ccc3C)n(Cc3ccc(C)cc3)c(=O)c2n1 | ? | -12%
45 | Cc1ccc(C)c(NC(=O)CSc2nc(-c3ccccc3)c(C#N)c(=O)[nH]2)c1 | ? | -15%
46 | CC(=O)N1c2c(cc(Br)cc2S(=O)(=O)N2CCN(c3cccc(Cl)c3)CC2)CC1C (stereo not drawn) | ? | -13%
47 | Cc1ccccc1OCC(=O)Nc1nnc(SCc2cc(=O)n3cccc(C)c3n2)s1 | 1% | 2%
48 | CC(=O)O[C@]1(C(C)=O)CC[C@@H]2[C@@H]3C[C@H](C)C4=CC(=O)CC[C@]4(C)[C@H]3CC[C@@]21C | . | -11%
49 | CN(C(=O)CSc1nnc(NC(=O)Nc2ccccc2)s1)c1ccccc1 | ? | ?
50 | COc1ccc(-c2csc3nc(-c4ccc(F)cc4)oc(=O)c23)cc1OC | ? | 1%

# Record cards, from the list above. Order of screens: PMP22 txn	HTT prom inh
# CN(C(=O)CSc1nnc(NC(=O)Nc2ccccc2)s1)c1ccccc1 is listed as ?	?
# Cc1ccc(S(=O)(=O)N2CCN(C(=O)c3cc(-c4ccc(Br)cc4)n[nH]3)CC2)c(C)c1 is listed as -30%	-27%
# CCCCN(C(=O)Nc1ccc(Cl)cc1)C1CCN(C(C)=O)CC1 is listed as -2%	13%
# COc1ccc(CCN2CC(C(=O)NCCc3ccccc3)CC2=O)cc1OC (stereo not drawn) is listed as 9%	12%

# Continued:
entry | SMILES | PMP22 txn | HTT prom inh
51 | CCCOc1ccc(C(=O)Nc2nonc2-c2ccc(OCC)cc2)cc1 | -21% | -3%
52 | O=C(Nc1ccc(F)cc1F)N1CCc2c(sc3c2CCCC3)C1c1ccc(F)cc1 (stereo not drawn) | ? | ?
53 | CC(=O)c1ccc(Nc2cc(C)nc3nc(Cc4ccc(Cl)cc4)nn23)cc1 | 12% | ?
54 | Cc1ccc(NC(c2ccc(Cl)cc2)c2nnc(-c3cccc(F)c3)o2)cc1C (stereo not drawn) | 0% | -6%
55 | O=C1CC(c2nc3ccccc3n2CCCOc2ccccc2)CN1c1ccc(F)cc1 (stereo not drawn) | ? | ?
56 | COc1ccccc1C(=O)Nc1c(C(=O)Nc2ccc(C)cc2)oc2ccccc12 | 4% | -4%
57 | CCOC(=O)c1ccccc1NC(=O)CN1C(=O)CC(c2ccco2)Sc2ccccc21 (stereo not drawn) | ? | -22%
58 | Cc1cccc(C(=O)Nc2ccc(-c3nc4cc(C(C)C)ccc4o3)cc2)c1 | ? | ?
59 | O=C(NCc1cccs1)c1ccc2c(c1)N(Cc1ccccc1Cl)C(=O)c1ccccc1S2 | -6% | 8%
60 | Cc1cccc(-c2nc3scc(CCNS(=O)(=O)c4c(C)noc4C)n3n2)c1 | -5% | -14%
61 | Cc1cccc(Cn2cc3c(=O)n(CC(=O)Nc4c(C)cccc4C)nc-3c3cc(F)ccc32)c1 | 0% | 5%
62 | CCn1c(SCc2c(F)cccc2Cl)nc(=O)c2c(C(=O)OC)cc(C3CC3)nc21 | ? | 2%
63 | COC(=O)c1cc2oc3ccccc3c2n1Cc1c(F)cccc1Cl | -2% | -8%
64 | Cc1ccc(S(=O)(=O)C(CNC(=O)c2ccc(C(F)(F)F)cc2)c2ccco2)cc1 (stereo not drawn) | -39% | -25%
65 | CCOC(=O)c1c(C)[nH]c(C)c1S(=O)(=O)N1CCCC(C(=O)Nc2ccc(C)c(N(C)C)c2)C1 (stereo not drawn) | 79% | -23%
66 | CC(C)(C)OC(=O)N1CCC(c2c(C(=O)NCCc3ccccc3)cnn2-c2ccc(F)cc2)CC1 | ? | -24%
67 | CCn1cc(/C=C(\NC(=O)c2cc(OC)c(OC)c(OC)c2)C(=O)NCCCn2ccnc2)c2ccccc21 | -22% | -2%
68 | CCOC(=O)c1ccc(N2C(=O)c3n[nH]c(C)c3C2c2ccccc2OC)cc1 (stereo not drawn) | 16% | -10%
69 | O=C(c1ccc(Br)cc1)N1CCC(c2nc3ccccc3s2)CC1 | 5% | -29%
70 | CCOC(=O)c1nnc2c(-c3ccc(OC)cc3)c(C)nn2c1N | -1% | -12%
71 | CCCCCN(CCCOC)C(=O)C(CCC(=O)O)NC(=O)c1ccc(Cl)c(Cl)c1 (stereo not drawn) | . | 8%
72 | CC1(C)O[C@H]2C[C@@H]3[C@H]4CCC5=CC(=O)C=C[C@]5(C)[C@@]4(F)[C@@H](O)C[C@]3(C)[C@]2(C(=O)CO)O1 | . | -7%
73 | Cc1cc(F)ccc1NCc1ccccc1-c1nnc(-c2ccccc2Cl)o1 | -54% | 19%
74 | CC1CCCN(Cc2c(O)ccc3c(=O)c(-c4ccc(Cl)cc4)c(C(F)(F)F)oc23)C1 (stereo not drawn) | -2% | -4%
75 | CC(=O)N[C@@H](CCC(N)=O)C(=O)O | . | 11%

# Four entries picked at random from those above:
entry | SMILES | PMP22 txn | HTT prom inh
73 | Cc1cc(F)ccc1NCc1ccccc1-c1nnc(-c2ccccc2Cl)o1 | -54% | 19%
75 | CC(=O)N[C@@H](CCC(N)=O)C(=O)O | . | 11%
60 | Cc1cccc(-c2nc3scc(CCNS(=O)(=O)c4c(C)noc4C)n3n2)c1 | -5% | -14%
72 | CC1(C)O[C@H]2C[C@@H]3[C@H]4CCC5=CC(=O)C=C[C@]5(C)[C@@]4(F)[C@@H](O)C[C@]3(C)[C@]2(C(=O)CO)O1 | . | -7%

# (continued)
entry | SMILES | PMP22 txn | HTT prom inh
76 | CC1CCN(S(=O)(=O)c2ccc3nc(N4CCN(c5ccc(F)cc5)CC4)ccc3c2)CC1 | -7% | 21%
77 | COc1cc(Cl)c(NS(=O)(=O)c2ccc(-c3cnc(C4CC4)o3)cc2)c(OC)c1 | 3µM* | ?
78 | COCCNC(=O)CN1C(=O)COc2ccc(S(=O)(=O)N3CCCC3)cc21 | 1% | -15%
79 | Cc1cccc(CNC(=O)CCCN2C(=O)CCn3nc(-c4cn(C)c5ccccc45)cc32)c1 | -28% | 0%
80 | COCCNC(=O)CCn1c(=O)[nH]c2cc(OC)c(OC)cc2c1=O | -10% | 1%
81 | COC(=O)CCN(C(=O)C1CCN(S(=O)(=O)c2c(C)noc2/C=C/c2ccccc2F)CC1)c1ccccc1 | 9% | -22%
82 | Cc1ccc(-n2ncc3c(NNC(=O)c4ccccc4C)ncnc32)cc1 | 7% | -22%
83 | CCN(CC)c1ccc(NC(=O)c2cc(S(=O)(=O)N3CCc4ccccc43)cn2C)c(C)c1 | -30% | -1%
84 | COc1nnc(-c2ccc(N3CCCCC3)c(NC(=O)c3ccccc3Cl)c2)c2ccccc12 | ? | 11µM*
85 | Cc1ccc(Cl)cc1NC(=O)CSc1nccn1C | -1% | 5%
86 | COc1ccc(CC(=O)NCc2ccc3c(c2)CCN3C(=O)c2ccc(C)cc2)cc1OC | -11% | ?
87 | Cc1c(C(=O)N2CCOCC2)oc2c1-c1nn(CC(=O)NCc3cccc(Cl)c3)cc1CC2 | ? | ?
88 | CCOc1ccccc1NC(=O)Cn1cnc2c1c(=O)n(C)c(=O)n2C | -16% | -7%
89 | CCCN(Cc1cccs1)C(=O)Nc1cc(C)ccc1OC | -7% | -7%
90 | CCCn1c2ccccc2c2cnn(CC(=O)NC(C)CC)c(=O)c21 (stereo not drawn) | -7% | -15%
91 | COc1ccccc1CNC(=O)CCC1N=C2c3ccccc3N=C(SCc3ccc(C)cc3C)N2C1=O (stereo not drawn) | ? | ?
92 | Cc1ccc(NC(=O)c2nnn(Cc3ccccc3)c2N)cc1C | 9% | 40%[activator]
93 | Cc1c(NC(=O)c2cccc3c(Cl)cccc23)cccc1-c1nc2ccccc2o1 | ? | -30%

# Screening results deposited in PubChem BioAssay by National Center for Advancing Translational Sciences (NCATS).
